# T cruzi inh: T. cruzi replication inhibition. inhibition, % (concentration not given with the values). hit rate 1.4% among 300,000. T. cruzi beta-gal in NIH3T3, luminescence, 90 h;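 active means mean inhibition across valid replicates above about 55%, limit read from the data; inconclusive means mean below that limit but half or more replicates reach it; inactive means mean below it, under half of replicates reach it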;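 further: signal also drops with host cell toxicity which is not excluded here; 0% = plate median of DMSO wells and 100% = zero luminescence signal; higher percent means less beta-gal luminescence so fewer parasites; stock transfer was 50 nL into about 50 µL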
# rRNA inh HTS: inhibitors of bacterial rRNA selective over humanized ribosomes. E. coli WT GFP vs humanized-ribosome RFP mutants, fluorescence, 24 h; stronger effect = lower value; DMSO median 0, no signal -100. GFP signal change (wild-type ribosome), % (no concentration beside the values). hit rate 1.6% among 350,000;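 active means significant combined selectivity score with lowered wild-type GFP, culture density cut under 30%, mutant RFP and density less affected; inactive means any of these conditions unmet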; further: one replicate is shown; some compounds called inactive have numbers as strong as hits
# RanGTP-Impb inh: inhibitors of RanGTP-importin-beta interaction, primary screen, biochemical, FRET, CFP-Ran, YFP-importin-beta, homogeneous. cell-free CFP-Ran/YFP-importin-beta FRET ratio. inhibition, % (no concentration beside the values). hit rate 1.1% among 300,000. AID 2216;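 active means most replicates above 15%; inconclusive means exactly half above 15%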;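 further: 0% = DMSO wells and 100% = Ran loaded with GDP instead of GTP; wells of about 40 µL received 100 nL stock; the first replicate is given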
# Beta cell apopt: blocks beta cell apoptosis; INS-1E cytokine-induced death, ATP luminescence, 48 h; percent of positive-control rescue, neutral wells zero; protection from apoptosis, % (no concentration beside the values); hit rate 0.8% among 300,000;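 active means all replicates at 75% or more, or half of them and the mean; inconclusive means half reach 75% but not the mean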;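 further: 0% = cytokine-treated negative control wells and 100% = positive control rescue; higher means more ATP so stronger rescue from cytokine killing; wells of about 40 µL received 100 nL stock; the first replicate is given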
# FGF22 binding: FGF22 (human) thermal shift binding; recombinant FGF22 thermal shift, SYPRO orange fluorescence; percent of sucrose octasulfate shift, DMSO zero; AID 651658; hit rate 1.5% among 340,000; calls only at 9.99 µM;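 active means melting point raised past a set limit in the mean and every replicate; inconclusive means no clear call; three in four hits are not shown here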
# Target sequence (Q9HCT0 whole entry, looked up): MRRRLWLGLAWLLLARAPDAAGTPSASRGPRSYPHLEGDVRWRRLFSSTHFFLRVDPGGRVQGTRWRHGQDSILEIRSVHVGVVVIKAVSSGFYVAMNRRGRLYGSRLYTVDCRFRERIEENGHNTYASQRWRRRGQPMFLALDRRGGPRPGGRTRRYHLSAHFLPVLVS
# ALR inh: blocks human ALR sulfhydryl oxidase activity | P55789 | purified ALR, DTT oxidation, H2O2 HRP-luminol luminescence | inhibition, % (concentration not given with the values) | hit rate 3.8% among 290,000 | AID 485317;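 active means mean and each replicate at 75% or more; inconclusive means only one of the two met; inactive means neither met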;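 further: stock transfer was 7.5 nL into about 7.5 µL; 0% = neutral wells and 100% = wells with inactivated enzyme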
# Target sequence (P55789 whole entry, looked up): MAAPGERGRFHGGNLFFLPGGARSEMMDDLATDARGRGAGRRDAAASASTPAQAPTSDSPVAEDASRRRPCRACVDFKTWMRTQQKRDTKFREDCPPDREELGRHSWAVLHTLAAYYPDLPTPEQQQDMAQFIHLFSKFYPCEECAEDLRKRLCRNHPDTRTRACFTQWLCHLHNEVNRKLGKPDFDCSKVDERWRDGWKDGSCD
# MLL AF4-AF9 inh: MLL-AF4/AF9 protein interaction inhibition | AlphaScreen, biotin-AF4 peptide binding to FLAG-AF9 | inhibition, % at 10 µM | hit rate 0.47% among 350,000 | AID 651704;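 active means every replicate reaching a set inhibition limit, whatever the replicate mean, cut at about 25% in these data; inconclusive means mean inhibition reaches that limit but some replicates miss it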;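 further: 0% = plate neutral control median and 100% = total signal loss; the record names both 10 and 1 µM as test concentration; the first replicate is given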
# Target sequence (P42568 whole entry, looked up): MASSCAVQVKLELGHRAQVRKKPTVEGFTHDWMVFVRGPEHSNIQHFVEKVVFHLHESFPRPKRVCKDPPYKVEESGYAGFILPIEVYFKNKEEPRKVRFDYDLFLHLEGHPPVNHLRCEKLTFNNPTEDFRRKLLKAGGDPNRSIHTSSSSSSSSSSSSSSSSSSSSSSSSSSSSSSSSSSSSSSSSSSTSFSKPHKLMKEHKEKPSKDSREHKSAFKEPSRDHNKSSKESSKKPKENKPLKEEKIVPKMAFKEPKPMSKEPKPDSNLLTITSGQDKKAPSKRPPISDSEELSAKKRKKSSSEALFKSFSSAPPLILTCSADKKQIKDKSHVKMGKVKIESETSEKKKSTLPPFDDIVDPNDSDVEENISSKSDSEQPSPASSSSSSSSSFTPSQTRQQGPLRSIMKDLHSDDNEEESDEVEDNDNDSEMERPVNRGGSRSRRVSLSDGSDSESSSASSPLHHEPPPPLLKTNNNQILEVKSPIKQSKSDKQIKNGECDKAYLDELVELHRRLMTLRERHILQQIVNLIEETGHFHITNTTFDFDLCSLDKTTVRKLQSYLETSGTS
# Calb FLC: C. albicans growth modulation with fluconazole; C. albicans CaCi-2 (fluconazole-resistant clinical isolate) + fluconazole, Alamar Blue growth, 48 h; hit rate 0.57% among 300,000; growth inhibition, % (test concentration not listed);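 active means most replicates above 75%; inconclusive means exactly half above 75%; inactive means most below 75%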;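 further: all wells also contain fluconazole at 8 µg/ml as a sub-toxic cotreatment; 0% = median of DMSO wells and 100% = median of geldanamycin control wells; wells of about 8 µL received 7.5 nL stock; the first replicate is given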
# rRNA inh HTS OD600: recorded beside rRNA inh HTS, whose call it bears; OD600 change, %; measured here: OD600 growth;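 optical density of the mix in the first replicate; 0 = DMSO median and -100 = no signal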
# rRNA inh HTS RFP: second read-out of rRNA inh HTS, no call of its own (marks repeat the call); RFP signal change, %; measured here: RFP humanized mutant strains;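 first replicate; 0 = DMSO median and -100 = no signal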
# * hit, by the source's call; i = inactive; u = inconclusive; x = not tested or not shown.
SMILES,T cruzi inh,rRNA inh HTS,rRNA inh HTS OD600,rRNA inh HTS RFP,RanGTP-Impb inh,Beta cell apopt,FGF22 binding,ALR inh,MLL AF4-AF9 inh,Calb FLC
CCNS(=O)(=O)c1ccc(CCC(=O)NCCc2ccc(OC)cc2)cc1,-10,7,4,-6.1,-5.5,0,i,-4,-0.9,1
CCCCCC(=O)Nc1ccc(Cc2ccncc2)cc1,0,x,x,x,3.1,-2,x,0,x,-4
COc1ccc(/C=C/C(=O)NC(=S)NNC(=O)c2cccnc2)cc1OC,9,x,x,x,3.8,-4,x,x,x,-4
COc1cccc(-c2cc(C(=O)N3CCN(Cc4ccccc4)CC3)no2)c1,20,-8,1,-0.6,-2.1,5,i,-6,3.3,-13
CC1(C(=O)NCc2cccnc2)CCC(=O)N1CCc1ccccc1 (stereo not drawn),3,5,3,-1.8,0.6,-2,i,x,-3.8,0
Oc1ccc(/C=N/n2cnn(Cc3ccccc3Cl)c2=S)c(O)c1,-18,-19,-22,-0.3,u,-9,i,10,1.5,7
COc1cc(NC(=O)CCN2CC(C)OC(C)C2)cc(OC)c1 (stereo not drawn),-6,17,-5,0.6,3.8,1,i,-10,-8.9,-1
Cc1ccc(OCc2ccc(C(=O)N3CCOCC3)cc2)cc1C,-24,x,x,x,-1.0,5,x,54,x,11
CCc1nc(SCC(=O)Nc2ccccc2)c2c(=O)n(C)c(=O)n(C)c2n1,-6,11,4,1.0,x,2,i,-4,-1.3,x
O=C(CNc1ccc(Cl)cc1)c1ccc(Br)cc1,11,x,x,x,-1.0,-5,i,-9,-0.7,-30
CCn1c(-c2csc(C(C)C)c2)n[nH]c1=S,-2,x,x,x,-2.7,1,i,56,-8.9,-12
CN(C)c1nc(N)nc(CSc2nnnn2-c2ccccc2)n1,1,x,x,x,-0.6,-3,x,-1,x,1
CCCCC(CC)CNC(=O)CCS(=O)(=O)c1cccc2nsnc12 (stereo not drawn),-2,x,x,x,-1.7,-8,x,-19,x,-12
CC1CCN(Cc2ccc(NC(=O)CC3Oc4ccccc4NC3=O)cc2)CC1 (stereo not drawn),-1,7,5,-1.9,-0.3,4,i,92*,21,8
Cc1c(-c2ccc(Cl)cc2)[n+](=O)c(-c2ccccc2)cn1[O-],6,-34,-34,-3.1,-0.2,2,i,x,-1.8,24
COc1ccc(C(=O)C2CCN(S(=O)(=O)c3ccc4c(c3)OCCO4)CC2)cc1,4,x,x,x,3.0,10,x,-5,x,0
C=CCSc1nc2ccccc2n2cnnc12,-11,4,-1,0.6,4.7,2,i,-5,0.0,-1
Nc1ccn(-c2ccccc2)c(=O)c1,-15,x,x,x,1.5,2,x,-21,x,2
Cc1csc(N2CCN(c3cc4c(cc3Cl)nc(-c3ccncc3)n4CCCN3CCCC3)CC2)n1,-26,5,9,4.9,13,3,i,x,19,29
O=C(CCS(=O)(=O)Cc1ccccc1)Nc1nnc(C(F)(F)F)s1,-18,11,6,5.9,3.1,-4,i,x,0.4,83*
Cc1ccc(C(=O)N2CCNC(=O)C2CC(=O)Nc2ccc(F)cc2)cc1C (stereo not drawn),-13,2,0,-0.3,4.9,-2,i,-9,-0.1,-2
Cc1cc(C)c2nc(N3CCCC(C(=O)N4CCC(C(N)=O)CC4)C3)sc2c1 (stereo not drawn),-32,-5,-6,2.6,-1.3,-14,i,23,3.6,0
CC(Oc1ccccc1)C(=O)OCC(=O)NC(=O)NCc1ccco1 (stereo not drawn),-16,9,4,0.6,6.7,-1,x,4,x,x
Fc1cnc(N2CCOCC2)nc1N1CCOCC1,-21,9,-2,-4.4,u,-3,i,-16,0.1,0
CC1=NNC(=O)c2ccccc2O1,-9,24,-3,-2.4,-1.3,-8,i,-7,-0.4,-4
SMILES,T cruzi inh,rRNA inh HTS,rRNA inh HTS OD600,rRNA inh HTS RFP,RanGTP-Impb inh,Beta cell apopt,FGF22 binding,ALR inh,MLL AF4-AF9 inh,Calb FLC
COc1cc(-c2csc(NC3CCCCC3)n2)cc(OC)c1OC,43,-2,1,5.4,-4.3,x,i,5,9.9,-7
CCCCCC/C(=N/O)c1ccccn1,33,x,x,x,-3.0,23,x,-3,x,-5
Cc1ccc(C2CC2c2n[nH]c(=S)n2-c2cccc(C)c2)cc1 (stereo not drawn),5,-51,-78,-15,-2.2,6,i,-8,-7.9,-33
CCOC(=O)C1CCCN(C2CCN(Cc3nc(Cc4ccccc4)no3)CC2)C1 (stereo not drawn),51,-3,0,-4.5,1.9,-5,i,-3,-0.1,u
COCCCn1c(SCC(=O)NC2CCCCC2)nc2ccccc2c1=O,20,3,6,-0.7,2.3,-7,i,4,1.9,-2
O=[N+]([O-])c1cccc(C(=S)N2CCN(c3ccc(F)cc3)CC2)c1,-9,14,0,11,-3.4,0,i,-7,10.0,-10
CC(=O)Nc1ccc(S(=O)(=O)Nc2nc3ccccc3nc2Cl)cc1,-5,10,5,0.5,7.5,-10,i,48,-1.8,-2
COc1cc(C=O)ccc1OC(=O)c1cccnc1,13,-4,-2,-7.5,1.4,x,i,10,-0.8,-6
O=C(NC1CCCc2c1cnn2-c1cc(F)cc(F)c1)c1ccc[n+]([O-])c1 (stereo not drawn),-11,10,8,4.4,-2.7,-2,i,5,-1.0,1
Cc1cc(C)c(C)c(SCC(=O)Nc2oc(C)c3c(C)n[nH]c(=O)c23)c1C,0,-13,-11,-2.1,-3.0,x,x,-18,-0.3,-4
CCOCCN(C(=O)c1ccccc1Cl)c1ccccc1,-5,4,9,-1.9,-1.7,-2,i,-3,-2.4,-2
CSc1ccccc1NC(=S)Nc1cc(C)cc(C)c1,-1,x,x,x,4.0,4,x,-4,x,-2
Cc1c(Cl)cccc1NC(=S)NCCN1CCOCC1,-15,x,x,x,2.7,0,x,-3,x,-12
O=C(c1ccc([N+](=O)[O-])o1)N1CCN(Cc2ccccc2)CC1,45,-3,-1,-0.2,7.1,-19,i,-27,-0.2,-2
Cc1ccc(C(C)n2cc(C(=O)NCc3ccncc3)nn2)cc1 (stereo not drawn),6,x,x,x,-4.4,-3,x,5,x,-1
COc1ccc(CCN2C(=O)N(c3ccc(OC)cc3)C(=O)C2CC(=O)Nc2ccc(OC)cc2)cc1 (stereo not drawn),-9,5,-3,-2.7,0.1,-3,i,2,-37,2
CC12CC3CC(C)(C1)CC(C(=O)NNC(=O)c1ccncc1)(C3)C2,1,-12,0,3.8,8.3,-3,i,2,2.6,-3
Cc1ccc(S(=O)(=O)N2CCCC2C(=O)NCc2ccc3c(c2)OCO3)cc1 (stereo not drawn),-10,-8,-5,-5.5,2.9,-3,i,-8,-1.3,-55
Cc1ccccc1-n1nc2c(c1NC(=O)COc1ccc(Cl)cc1)CS(=O)C2 (stereo not drawn),-4,-19,-27,-0.6,-0.3,-6,i,13,-5.6,-6
O=C(Nc1c2c(nn1-c1ccccc1)CS(=O)(=O)C2)c1cccs1,-1,8,9,4.4,4.0,-2,i,4,-2.7,-2
Cc1nn(C)cc1N1C(=O)c2cccc3c(N)ccc(c23)C1=O,3,107,11,6.1,i,-3,i,-11,-2.7,-2
CCOC(=O)C1CCN(Cc2cccc(OCc3ccccc3)c2)CC1,1,-3,-3,-1.0,-0.2,-3,i,-9,-5.3,-26
CCCC(=O)Nc1cc2c3c(c1)C(C)C(=O)N3CCC2 (stereo not drawn),-8,8,6,-1.1,2.1,-11,i,-67,-1.4,-2
O=C(CCNc1n[nH]c(=O)[nH]c1=O)N/N=C\c1ccc(Br)cc1,7,6,9,-3.3,0.1,-9,i,x,7.0,13
COc1ccc(NC(=O)NN2CCN(C)CC2)c(OC)c1,12,4,8,-1.0,-1.8,4,i,-9,-3.0,0

# Copied from the list:
# `O=C(CCNc1n[nH]c(=O)[nH]c1=O)N/N=C\c1ccc(Br)cc1` @ RanGTP-Impb inh: 0.1
# `CSc1ccccc1NC(=S)Nc1cc(C)cc(C)c1` @ Beta cell apopt: 4
# `COc1cc(C=O)ccc1OC(=O)c1cccnc1` @ rRNA inh HTS RFP: -7.5
# `O=C(CNc1ccc(Cl)cc1)c1ccc(Br)cc1` @ MLL AF4-AF9 inh: -0.7
# `CC1(C(=O)NCc2cccnc2)CCC(=O)N1CCc1ccccc1` (stereo not drawn) @ Beta cell apopt: -2

# Reprinted at random: three records from the list.
SMILES,T cruzi inh,rRNA inh HTS,rRNA inh HTS OD600,rRNA inh HTS RFP,RanGTP-Impb inh,Beta cell apopt,FGF22 binding,ALR inh,MLL AF4-AF9 inh,Calb FLC
COc1ccc(NC(=O)NN2CCN(C)CC2)c(OC)c1,12,4,8,-1.0,-1.8,4,i,-9,-3.0,0
CSc1ccccc1NC(=S)Nc1cc(C)cc(C)c1,-1,x,x,x,4.0,4,x,-4,x,-2
COc1cc(C=O)ccc1OC(=O)c1cccnc1,13,-4,-2,-7.5,1.4,x,i,10,-0.8,-6

# (continued)
SMILES,T cruzi inh,rRNA inh HTS,rRNA inh HTS OD600,rRNA inh HTS RFP,RanGTP-Impb inh,Beta cell apopt,FGF22 binding,ALR inh,MLL AF4-AF9 inh,Calb FLC
CN(C)S(=O)(=O)N1CCc2ccccc21,1,x,x,x,1.4,-5,x,-4,x,7
Brc1ccc(-c2nnc3n2C2(CCCC2)Cc2ccccc2-3)o1,35,x,x,x,u,-1,x,x,x,13
CCOC(=O)C1CN(S(=O)(=O)c2ccc(C)cc2)c2cc(S(=O)(=O)CC)ccc2O1 (stereo not drawn),-7,x,x,x,1.7,3,x,x,x,6
CC(=O)c1c(C)[nH]c(C(=O)CN2C(=O)NC(C)(c3ccc4c(c3)OCCO4)C2=O)c1C (stereo not drawn),-6,4,8,1.8,1.6,-7,i,x,-17,-7
Cc1cccc(NC(=O)Cn2cc(C(=O)C3CC3)c3ccccc32)c1C,-57,-2,5,-0.7,0.5,18,i,2,-5.0,0
COc1cccc(C2C3=C(CC(C)(C)CC3=O)OC(N)=C2[N+](=O)[O-])c1 (stereo not drawn),-15,x,x,x,-1.4,-1,x,-4,x,5
O=C(CN1CCC(C(=O)c2ccc3c(c2)OCCO3)CC1)Nc1ccccc1C(F)(F)F,16,-16,-48,22,0.2,2,i,-2,-0.2,-4
CCOC(=O)C1=C(COC(=O)/C=C/c2cccc([N+](=O)[O-])c2)NC(=O)NC1C (stereo not drawn),-24,4,15,0.6,3.7,-3,i,x,-4.6,5
Cn1ncc(Cl)c1C(=O)N1CCN(C23CC4CC(CC(C4)C2)C3)CC1,11,5,7,5.3,2.9,-5,i,4,0.0,-8
CC(=O)c1ccc(N2CCN(C(=S)Nc3cccc(Cl)c3)CC2)cc1,12,x,x,x,1.3,-3,x,0,x,0
O=C(Cc1cccs1)NCc1ccccc1Br,-1,-1,2,-2.2,7.6,2,i,-11,-2.6,-4

# In the list so far, 2 have a CF3 group.
SMILES,T cruzi inh,rRNA inh HTS,rRNA inh HTS OD600,rRNA inh HTS RFP,RanGTP-Impb inh,Beta cell apopt,FGF22 binding,ALR inh,MLL AF4-AF9 inh,Calb FLC
O=C(CCS(=O)(=O)Cc1ccccc1)Nc1nnc(C(F)(F)F)s1,-18,11,6,5.9,3.1,-4,i,x,0.4,83*
O=C(CN1CCC(C(=O)c2ccc3c(c2)OCCO3)CC1)Nc1ccccc1C(F)(F)F,16,-16,-48,22,0.2,2,i,-2,-0.2,-4

# High-throughput results from PubChem BioAssay.

# Not all compounds are listed. The share of hits here may be higher or lower than overall.
